Bioassay records deposited in PubChem BioAssay by ICCB-Longwood Screening Facility, Harvard Medical School.
GIV Gai3 FP: blocks GIV peptide binding to rat Galpha-i3; Galpha-i3/FITC-GIV peptide fluorescence polarization, 90 min; stronger effect = lower value; scaled: aluminum fluoride 0%, vehicle 100%; percent of control (FP), % (no concentration beside the values); 210,000 compounds, 0.42% hits;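 active means replicate mean at 85% of control or lower, very high polarization wells dropped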;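 further: wells of about 15 µL received 100 nL stock; the first replicate is given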
Target sequence (P08753 whole entry, looked up): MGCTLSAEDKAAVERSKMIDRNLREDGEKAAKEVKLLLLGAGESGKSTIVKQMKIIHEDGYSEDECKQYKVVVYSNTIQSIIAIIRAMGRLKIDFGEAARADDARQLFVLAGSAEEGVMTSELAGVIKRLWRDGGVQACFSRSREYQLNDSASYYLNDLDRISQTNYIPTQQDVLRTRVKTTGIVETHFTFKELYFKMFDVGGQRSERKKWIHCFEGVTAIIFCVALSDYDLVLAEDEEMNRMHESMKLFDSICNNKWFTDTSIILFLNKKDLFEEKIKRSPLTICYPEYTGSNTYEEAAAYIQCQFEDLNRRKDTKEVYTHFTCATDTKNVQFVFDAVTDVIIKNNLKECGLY
Sa growth inh: S. aureus growth inhibition. S. aureus RN4220 growth, OD600, 20 h, 42 °C; stronger effect = lower value. relative growth, % (test concentration not listed). 170,000 compounds, 0.53% hits;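 active means growth at 42 °C up to 50% and 20 or more points under that at 30 °C, or under 10% at both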;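 further: 300 nL library stock went into each well; scaled to the means of positive and negative controls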
HCMV UL50-53 inh: disrupts HCMV UL50-UL53 complex binding | HTRF UL50-UL53 interaction, normalized percent inhibition | 190,000 compounds, 0.15% hits | AID 1918969 | inhibition, % (concentration not given with the values);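 active means both replicates at 50% or more, plus weaker picks with an unusually low signal ratio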;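 further: stock transfer was 100 nL into about 20 µL; 0% = negative control wells and 100% = wells with untagged competitor protein; inactives centre near -12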
Sa growth inh second temp: further read-out of Sa growth inh, marked with its call; relative growth, %; measured here: growth at 30 °C;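 optical density after 20 h as mean of two plates; 100% = untreated growth and lower means inhibition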
An asterisk follows results filed as active; / = not tested or not shown; & = joins results of further samples.

A first look (17 entries):
SMILES | GIV Gai3 FP | Sa growth inh | Sa growth inh second temp | HCMV UL50-53 inh
O=C(OCc1ccc(Cl)cc1)c1ccccc1NCc1ccco1 | / | 86 | 90 | -7
Cc1ccc(C)c(CN2CCC(CNC(=O)Nc3c(C)cccc3C)CC2)c1 | 105 | / | / | -6
CCOC(=O)c1cccc(NC(=O)C2CCCN2S(=O)(=O)c2ccc3c(c2)NC(=O)CO3)c1 (stereo not given) | 109 | / | / | -4
c1ccc(NC2=Nc3ccccc3CC2)cc1 | 111 | 91 | 109 | 8
CN(C(=O)CCc1nc2ccccc2s1)c1ccccc1 | / | 95 | 88 | -8
Cn1c(SCc2nc(-c3ccccc3)no2)nnc1C1CCCCC1 | 102 | 95 | 95 | 2
O=C(OCn1nnc2ccccc2c1=O)C1CSC2(c3ccc(F)cc3)CCC(=O)N12 (stereo not given) | / | 101 | 94 | -13
O=S(=O)(c1ccc2nc(Nc3ccc(F)cc3)ccc2c1)N1CCCC1 | 106 | 112 | 92 | /
CC(=O)N1CCOc2ccc(S(=O)(=O)N3CCOc4ccccc43)cc21 | 106 | 88 | 93 | -4
Cc1ccc(CNC(=O)CCSCc2cnn(-c3ccccc3)c2-n2cccc2)cc1 | 100 | 109 | 95 | -20
CC(=O)Oc1cc2oc(=O)c3c(c2cc1Cl)CCC3 | / | 95 | 95 | -9
CCOc1ccc(-c2c(C#N)c(N)nc3sc(C(=O)c4ccccc4)c(N)c23)cc1 | 135 | / | / | -25
Cc1noc(C)c1S(=O)(=O)NCCc1csc2nc(-c3ccc(F)cc3)nn12 | 100 | 99 | 89 | /
CC(C)CCn1c(=O)c2ccccc2n2c(=O)n(CC(=O)Nc3ccc4c(c3)OCO4)nc12 | 99 | / | / | -8
CCCn1c(=O)c2sccc2n2c(CCCC(=O)Nc3ccccc3OCC)nnc12 | 100 | 105 | 90 | -4
COc1ccc(-c2cc3nc(C)c(CCC(=O)N4CCN(c5ccc(F)cc5)CC4)c(C)n3n2)c(OC)c1 | 104 | 89 | 85 | -8
COCCN1C(=O)CSc2c(c(C)nn2-c2ccccc2)C1C(=O)NCc1ccccc1OC (stereo not given) | 100 | / | / | -31

The whole of this part (from the top)
SMILES | GIV Gai3 FP | Sa growth inh | Sa growth inh second temp | HCMV UL50-53 inh
O=C(OCc1ccc(Cl)cc1)c1ccccc1NCc1ccco1 | / | 86 | 90 | -7
Cc1ccc(C)c(CN2CCC(CNC(=O)Nc3c(C)cccc3C)CC2)c1 | 105 | / | / | -6
CCOC(=O)c1cccc(NC(=O)C2CCCN2S(=O)(=O)c2ccc3c(c2)NC(=O)CO3)c1 (stereo not given) | 109 | / | / | -4
c1ccc(NC2=Nc3ccccc3CC2)cc1 | 111 | 91 | 109 | 8
CN(C(=O)CCc1nc2ccccc2s1)c1ccccc1 | / | 95 | 88 | -8
Cn1c(SCc2nc(-c3ccccc3)no2)nnc1C1CCCCC1 | 102 | 95 | 95 | 2
O=C(OCn1nnc2ccccc2c1=O)C1CSC2(c3ccc(F)cc3)CCC(=O)N12 (stereo not given) | / | 101 | 94 | -13
O=S(=O)(c1ccc2nc(Nc3ccc(F)cc3)ccc2c1)N1CCCC1 | 106 | 112 | 92 | /
CC(=O)N1CCOc2ccc(S(=O)(=O)N3CCOc4ccccc43)cc21 | 106 | 88 | 93 | -4
Cc1ccc(CNC(=O)CCSCc2cnn(-c3ccccc3)c2-n2cccc2)cc1 | 100 | 109 | 95 | -20

One compound at a time, as listed above. Order of screens: GIV Gai3 FP | Sa growth inh | Sa growth inh second temp | HCMV UL50-53 inh
`CC(=O)N1CCOc2ccc(S(=O)(=O)N3CCOc4ccccc43)cc21` is listed with 106 | 88 | 93 | -4
`Cc1ccc(C)c(CN2CCC(CNC(=O)Nc3c(C)cccc3C)CC2)c1` is listed with 105 | / | / | -6
`O=C(OCc1ccc(Cl)cc1)c1ccccc1NCc1ccco1` is listed with / | 86 | 90 | -7
`CCOC(=O)c1cccc(NC(=O)C2CCCN2S(=O)(=O)c2ccc3c(c2)NC(=O)CO3)c1` (stereo not given) is listed with 109 | / | / | -4

Continuation:
SMILES | GIV Gai3 FP | Sa growth inh | Sa growth inh second temp | HCMV UL50-53 inh
CC(=O)Oc1cc2oc(=O)c3c(c2cc1Cl)CCC3 | / | 95 | 95 | -9
CCOc1ccc(-c2c(C#N)c(N)nc3sc(C(=O)c4ccccc4)c(N)c23)cc1 | 135 | / | / | -25
Cc1noc(C)c1S(=O)(=O)NCCc1csc2nc(-c3ccc(F)cc3)nn12 | 100 | 99 | 89 | /
CC(C)CCn1c(=O)c2ccccc2n2c(=O)n(CC(=O)Nc3ccc4c(c3)OCO4)nc12 | 99 | / | / | -8
CCCn1c(=O)c2sccc2n2c(CCCC(=O)Nc3ccccc3OCC)nnc12 | 100 | 105 | 90 | -4
COc1ccc(-c2cc3nc(C)c(CCC(=O)N4CCN(c5ccc(F)cc5)CC4)c(C)n3n2)c(OC)c1 | 104 | 89 | 85 | -8
COCCN1C(=O)CSc2c(c(C)nn2-c2ccccc2)C1C(=O)NCc1ccccc1OC (stereo not given) | 100 | / | / | -31
CC(=NC(C)C)C1=C(O)CCC1=O | / | 105 | 88 | -20
Cc1cc(N2CCC(C)CC2)nc2ccc(NC(=O)CCC(=O)N3CCC(C)CC3)cc12 | 105&102 | 92 | 82 | -22
Cc1nn(-c2ccccc2)c2c1CC(C#N)(c1ccccn1)C1CCCN21 (stereo not given) | / | 90 | 99 | -13
O=C(/C=C/c1ccco1)OCc1ccccc1 | / | 71 | 67 | -8
COC(=O)c1cc(-c2ccc(S(=O)(=O)N3CCOCC3)cc2)c(C(F)(F)F)s1 | 99 | 89 | 77 | -9
CCOc1ccc(NC(=O)C2c3ccccc3Oc3ccccc32)cc1 | 101 | 96 | 87 | /
Cc1cc(Cl)ccc1NC(=O)CS(=O)(=O)c1cccc2nsnc12 | 100 | 90 | 93 | /
O=C(CCNC(=O)NC12CC3CC(CC(C3)C1)C2)Nc1ccc(-n2cnnn2)cc1 | / | 107 | 90 | 7
COc1ccc(N2CCN(C(=O)c3nn(C)c4c3CSc3ccccc3-4)CC2)cc1 | 101 | 84 | 90 | -23
Cc1cc(F)ccc1NC(=O)c1csc2c1CCC(C)C2 (stereo not given) | 95 | / | / | 13
FC(F)(F)c1cccc(N2CCN(Cc3nnc(-c4ccccc4)o3)CC2)c1 | 108 | 104 | 95 | -9
Cc1ccc(S(=O)(=O)c2cn(CC(=O)Nc3ccc4c(c3)OCO4)c3ccc(F)cc3c2=O)cc1 | 106 | 109 | 85 | -32
O=C(CC1N=C2c3ccccc3N=C(SCC(=O)Nc3ccccc3F)N2C1=O)NCc1cccs1 (stereo not given) | 105 | 109 | 65 | -19
CC1CN(C(=O)Cn2nc(-c3cccc(-n4cccc4)c3)oc2=O)CC(C)O1 (stereo not given) | 107 | 109 | 82 | 0
Fc1ccc(CN2CCN3CCCC3C2C2CCCCC2)cc1F (stereo not given) | 101 | 99 | 99 | 5
Cn1c(O)c(C=NC23CC4CC(CC(C4)C2)C3)c(=O)n(C)c1=O | 135 | 91 | 77 | /
COc1ccc(C2CC(c3ccc(OC)c(OC)c3)=NN2c2nc(C)cs2)cc1 (stereo not given) | 104 | / | / | -52
COc1ccc(S(=O)(=O)Nc2ccc3[nH]ncc3c2)cc1Br | / | 103 | 84 | -8
Cc1ccc(S(=O)(=O)N(C)Cc2nc(-c3ccccc3)oc2C)cc1 | 101 | 110 | 90 | /
CCN(CC)C(=O)c1sc2c(c1C)c(=O)n(-c1ccccc1)c(=O)n2CC(=O)Nc1ccc(C)cc1C | 101 | 111 | 88 | /
CC1=C(C(=O)Nc2ccccc2)C(c2ccc3c(c2)OCO3)n2ncnc2N1 (stereo not given) | 104 | / | / | 10
COc1ccc(OC)c(-c2csc(-c3c(N)c(C(=O)c4ccccc4)n4ccccc34)n2)c1 | 98 | 102 | 90 | -7
CNC(=O)C1CC(=O)N(C2CCCCCC2)C1 (stereo not given) | 103 | 97 | 80 | /
CCOc1ccc(S(=O)(=O)Nc2nc3ccccc3nc2Nc2ccc(OC)cc2)cc1 | 100 | 114 | 84 | -12
O=S(=O)(/N=C\c1cc(Br)ccc1O)c1cccs1 | / | 113 | 73 | 3
Cn1c(-c2ccccc2)nc2ccccc21 | 99 | 92 | 84 | 4
CC1C(=O)NC(=O)N1c1ccc(Cl)cc1 (stereo not given) | / | 78 | 80 | 5
CCOC(=O)c1c(NC(=O)c2nc(S(=O)(=O)CC)ncc2Cl)sc2c1CCCC2 | 97 | / | / | -2
Cc1[nH]c2ccccc2c(=O)c1CNCc1ccccc1 | 105 | 95 | 91 | 7
CC(C)COc1ccc(C(=S)N2CCCCC2)cc1 | 105 | 66 | 80 | /
CCCOc1ccccc1C(=O)Nc1nc2c(s1)CCCC2 | 102 | 101 | 92 | 10
COc1ccc(OC)c(S(=O)(=O)N2CCC3(CC2)Nc2cc(F)ccc2-n2cccc23)c1 | 102 | / | / | -3
CC(SCc1nc2sc3c(c2c(=O)[nH]1)CCCC3)C(=O)Nc1nccs1 (stereo not given) | / | 112 | 94 | 8
CC[N+](CC)(CC)CCOc1cccc(OCC[N+](CC)(CC)CC)c1OCC[N+](CC)(CC)CC | 97&103 | 90&86 | 89&81 | -36&-14&5&-7&-10
CC(NC(=S)NCCN1CCCCC1)c1ccccc1 (stereo not given) | 101 | 107 | 106 | 10
COc1ccccc1-c1noc(CCCC(=O)NCc2ccco2)n1 | 99 | 105 | 93 | -4
O=c1c2ccccc2n2c(=O)n(Cc3ccccc3Cl)nc2n1CCc1ccccc1 | 101 | / | / | -5
COc1ccc(S(=O)(=O)NCC(c2ccco2)S(=O)(=O)c2ccc(C)cc2)cc1C (stereo not given) | 102 | 133 | 85 | /
CCc1ccccc1NC(=O)CN(C)Cc1nc(N)nc(Nc2ccccc2C)n1 | / | 89 | 89 | -12
O=C(CSc1ccc(Br)cc1)c1ccco1 | / | 90 | 53 | -2
O=c1c2[nH]c3ccc(Cl)cc3c2ncn1CCCN1CCCC1 | 109 | 85 | 84 | -16
COc1cccc(OC(=O)CSc2nnc(-c3ccc4c(c3)OCO4)o2)c1 | 103 | 81 | 73 | -18
CCN(CC)c1ccc(NC(=O)c2ccc(Cl)s2)cc1 | / | 103 | 88 | -12

Other compounds.
SMILES | GIV Gai3 FP | Sa growth inh | Sa growth inh second temp | HCMV UL50-53 inh
O=C(O)c1cccc(Nc2nc(-c3ccccn3)cs2)c1 | 99 | 84 | 79 | -93
O=C(Nc1cccc(C(F)(F)F)c1)C1CCCO1 (stereo not given) | 102 | 89 | 89 | -27
Cc1oc(C(C)(C)C)cc1C(=O)N1CCC(O)(c2ccc(Cl)cc2)CC1 | 107 | 83 | 46 | -19
C=CCOc1ccc(C(=O)O)cc1OC | 104 | 93 | 81 | -8
O=C(OCN1C(=O)c2ccccc2C1=O)c1cccc(S(=O)(=O)N2CCCC2)c1 | / | 90 | 86 | -27
CCc1c(C)nc2ncnn2c1Sc1ccccc1NC(=O)Cc1ccc(Cl)cc1 | 96 | / | / | -38
COc1cc(C(=O)NC2=C(C#N)CCC2)cc(OC)c1OC | 101 | 92 | 99 | 23
FC(F)(F)c1ccnc(NCc2ccco2)n1 | 100 | 91 | 91 | -15
CCOC(=O)C1CCCN(C(=O)COc2ccccc2F)C1 (stereo not given) | / | 104 | 97 | 4
CCCC1C2CC(C)CC=C2C(C#N)=C(N)C1(C#N)C#N (stereo not given) | 103 | 75 | 61 | /
NC(=O)c1ccc(NC(=O)C#Cc2ccccc2)cc1 | 110 | 102 | 102 | 19
CC(C)CC(=O)NCc1nc2cccnc2n1Cc1ccccc1 | 107 | 112 | 87 | /
COc1ccc(OC)c(C2=NOC(C(=O)Nc3ccc4c(c3)OCO4)C2)c1 (stereo not given) | 108 | 85 | 87 | 7
COc1cccc(CN2C(=O)N(c3ccc(C)cc3)C(=O)C2CC(=O)Nc2cc(OC)cc(OC)c2)c1 (stereo not given) | 109 | 122 | 99 | /
Cc1cccc(N2C(=O)C(CC(=O)Nc3ccc(Cl)cc3)N(Cc3ccco3)C2=O)c1 (stereo not given) | 105 | 109 | 85 | /
COc1ccc(N(C)C(C)=O)cc1 | 102 | 106 | 76 | -4
Cc1ccc(/C=C/C(=O)NC(=S)N2CCN(c3ccc(F)cc3)CC2)cc1 | / | 90 | 97 | -4
O=c1[nH]c2ccc(S(=O)(=O)N3CCc4ccccc43)cc2[nH]c1=O | 102 | 102 | 82 | -14
Cc1ccccc1OCCSc1nc2ccccc2n1CC(O)CO (stereo not given) | 105 | / | / | -7
O=c1c2ccccc2c(/C=N/n2cnnc2)c(O)n1-c1ccccc1 | / | 113 | 98 | -77
CCC(C)NC(=O)c1c(-c2c(F)cccc2Cl)noc1C (stereo not given) | / | 123 | 84 | -8
CCCCOc1ccc(C(=O)Nc2ccc3c(c2)CCCN3S(=O)(=O)c2ccc(C)cc2)cc1 | 99 | 91 | 88 | /
CCNC(=S)Nc1cc(-c2ccc(Cl)cc2)[nH]n1 | 106 | 104 | 87 | -4
COC(=O)C1=C(C)NC(C)=C(C(=O)OC(C)(C)CN(C)CCC(c2ccccc2)c2ccccc2)C1c1cccc([N+](=O)[O-])c1 (stereo not given) | 108 | / | / | -22&-16
CC(C)(C)c1ccc(NC(=O)COC(=O)c2ccc(F)cc2F)cc1 | / | 105 | 100 | 11
CCc1ccc(O)c(C(=O)c2cnc3cc(-c4ccc(OC)cc4)nn3c2)c1 | 98 | / | / | -30
CC(=O)c1cccc(NC(=O)C2CCN(S(=O)(=O)c3ccc4[nH]c(=O)ccc4c3)CC2)c1 | 102 | 110 | 85 | /
